Compound activity deposited in PubChem by National Center for Advancing Translational Sciences (NCATS).
GAA glycogen: qHTS Assay for Inhibitors and Activators of Human alpha-Glucosidase Cleavage of Glycogen | AID 2100, 2009 | 300,000 compounds, 0.38% hits | Potency, µM (series often up to 76.4 µM), for inactives: top-dose activity change, negative = inhibition, actives largely listed as inhibitors | recombinant GAA, glycogen substrate, Amplex Red glucose oxidase fluorescence | Lysosomal alpha-glucosidase (Homo sapiens), P10253;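 also: 0% = full enzyme reaction and -100% = no-enzyme basal signal; the screen sought inhibitors and activators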
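Natural-substrate format: glycogen cleavage by 4 nM human enzyme, glucose read by Amplex Red coupling (Ex 573, Em 610 nm). Normalized to enzyme and no-enzyme controls.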
RGS12 GoLoco inh: qHTS Assay for Inhibitors of RGS12 GoLoco Motif Activity (Red Fluorophore); Potency, µM (top dose mostly 61.6 µM), inactives show at the highest dose activity, negative = inhibition, hits mostly inhibitors; Guanine nucleotide-binding protein G(i) subunit alpha-1 (Homo sapiens), P63096; 230,000 compounds, 0.44% hits; AID 880, 2007; Gai1:RGS12 GoLoco peptide FP, rhodamine, 10 min; active = well fitted inhibition curve with a large enough effect, not every such curve was filed as active; inactive = no such curve, though single readings can be large or run the other way; also: % is scaled to controls: 0 for no effect and ±100 for the full control effect; nearly all actives have a fitted effect of over 30% in size; many of its hits are not listed in these tables
Target sequence (P63096 whole entry, looked up): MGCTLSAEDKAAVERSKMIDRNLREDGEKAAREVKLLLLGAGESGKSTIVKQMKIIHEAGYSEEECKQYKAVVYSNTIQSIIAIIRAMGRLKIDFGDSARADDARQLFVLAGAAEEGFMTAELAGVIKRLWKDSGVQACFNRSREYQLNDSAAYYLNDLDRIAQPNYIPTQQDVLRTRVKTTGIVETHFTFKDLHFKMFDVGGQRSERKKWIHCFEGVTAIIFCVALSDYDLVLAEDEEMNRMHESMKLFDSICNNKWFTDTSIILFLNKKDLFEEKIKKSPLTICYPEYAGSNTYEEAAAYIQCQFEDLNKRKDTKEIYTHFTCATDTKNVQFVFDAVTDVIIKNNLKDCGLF
aGal spleen mod: qHTS Assay for Inhibitors and Activators of Human alpha-Galactosidase From Spleen Homogenate; Alpha-galactosidase A (Homo sapiens), P06280; human spleen homogenate, 4MU-alpha-Gal fluorescence, 40 min; Potency, µM (doses to about 80 µM), without a hit: top-dose activity change, negative = inhibition, actives largely listed as inhibitors; 240,000 compounds, 0.008% hits;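 also: 0% = enzyme with vehicle and -100% = no enzyme basal signal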
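qHTS titration in buffer at pH 5.0. Alpha-galactosidase activity in spleen homogenate was measured via 4-methylumbelliferone release from 1 mM fluorogenic substrate after 40 min at 37C and a pH 10 stop. AC50 came from Hill fits of control-normalized data.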
KDM4E inh: qHTS Assay for Inhibitors of Human Jumonji Domain Containing 2E (JMJD2E); JMJD2E catalytic domain, FDH-coupled NADH fluorescence (FDH is formaldehyde dehydrogenase); Potency, µM (titrated, usually from 57.1 µM), for the others: top-dose activity change, negative = inhibition, hits mostly inhibitors; Lysine-specific demethylase 4E (Homo sapiens), B2RXH2; 230,000 compounds, 1.6% hits; active = well fitted inhibition curve with a large enough effect, not every such curve was filed as active; inconclusive = small, poorly fitted or top-dose-only effect, or another doubt; inactive = no such curve, though single readings can be large or run the other way;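 also: 0% = wells with enzyme and -100% = buffer wells without enzyme; nearly all actives have a fitted effect of over 50% in size; many of its hits are not listed in these tables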
Target sequence (B2RXH2 1-337 limits assumed): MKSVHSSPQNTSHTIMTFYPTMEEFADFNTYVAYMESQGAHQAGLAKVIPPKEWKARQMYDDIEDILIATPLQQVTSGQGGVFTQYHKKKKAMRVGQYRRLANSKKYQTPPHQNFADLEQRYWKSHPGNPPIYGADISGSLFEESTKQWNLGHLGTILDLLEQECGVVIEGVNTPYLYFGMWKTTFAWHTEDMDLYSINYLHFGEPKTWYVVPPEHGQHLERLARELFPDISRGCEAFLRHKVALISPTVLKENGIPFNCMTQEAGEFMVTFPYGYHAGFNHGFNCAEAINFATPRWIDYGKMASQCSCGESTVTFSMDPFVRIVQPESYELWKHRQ
SMN2 splice enh: qHTS Assay for Enhancers of SMN2 Splice Variant Expression. HEK293 SMN2-luciferase splicing reporter, luminescence, 30-36 h. Potency, µM (series often up to 46.1 µM), without a hit: top-dose activity change, positive = activation, actives largely listed as activators. 210,000 compounds, 2.8% hits; also: % of control where 0% means no effect; nearly all actives have a fitted effect of over 55% in size
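HEK293 cells carry an SMN2 minigene-luciferase reporter in which exon 7 inclusion puts luciferase in frame. Cells were seeded at 2000 cells/well, attached for 10-12 hours, then exposed to compounds for 30-36 hours at 37C before ONE-Glo luminescence.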
aGlu spleen mod: qHTS Assay for Inhibitors and Activators of Human alpha-Glucosidase From Spleen Homogenate. AID 2112, 2009. Lysosomal alpha-glucosidase (Homo sapiens), P10253. 240,000 compounds, 0.006% hits. human spleen homogenate, 4-MU-alpha-glucoside fluorescence. Potency, µM (series often up to 79.9 µM), inactives show at the highest dose activity change, negative = inhibition, most hits filed as inhibitors;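 also: 0% = enzyme with vehicle and -100% = no enzyme basal signal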
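Enzyme source: human spleen homogenate, 1 ug/well. Buffer 50 mM citric acid/K phosphate pH 5.0, 0.01% Tween-20. 4-MU-alpha-glucoside 1 mM; 37 C x 40 min; NaOH/glycine stop; fluorescence.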
GAA inh: qHTS Assay for Inhibitors of Human alpha-Glucosidase as a Potential Chaperone Treatment of Pompe Disease; Lysosomal alpha-glucosidase (Homo sapiens), P10253; purified human GAA, 4-MU-alpha-glucoside fluorescence; Potency, µM (series often up to 76.9 µM), without a hit: at the top dose activity change, negative = inhibition, hits mostly inhibitors; 200,000 compounds, 0.005% hits; AID 1466, 2008;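 also: plate controls were uninhibited enzyme wells for no effect and no-enzyme background for full effect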
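Enzyme (4 nM final) mixed with compound (up to 77 uM), then 4-MU-alpha-D-pyranoside (400 uM final) added; 20 min at room temperature, pH 5.0. Reaction stopped at pH 10, fluorescence read, AC50 derived by Hill fit.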
Active calls of the source: *; ? = inconclusive; nt = no result given; [ ] = dose if it differs, or a comment. Unless noted, calls follow the shape of the dose curve; as a rule, active = well fitted curve in the direction sought with a large enough effect; inconclusive = small, poorly fitted or top-dose-only effect, or another doubt; inactive = no such curve, though single readings can be large; an effect the other way counts as inactive or inconclusive. Potency is read from the fitted curve at half-maximal effect. These rows are one share of the data; count on the stated rates, not on these rows.

SMILES	GAA glycogen	RGS12 GoLoco inh	aGal spleen mod	KDM4E inh	SMN2 splice enh	aGlu spleen mod	GAA inh
O=C(O)CCc1ccc(-c2ccc(F)cc2)n1NC(=O)c1ccco1	0%	1%	-5%	-22%	4%	-7%	-1%
N/C(=N\OC(=O)C1CCCCC1)c1cccc([N+](=O)[O-])c1	-9%	-14%	-7%	-6%	10%	1%	-5%
O=C(NCC(F)(F)F)Nc1nnc(C(F)(F)F)s1	-3%	9%	-15%	-7%	-12%	-4%	1%
CN(CC1COc2ccccc2O1)C(=S)Nc1ccccc1F (stereo not given)	6%	-5%	-3%	5%	12%	-1%	2%
CCOC(=O)N1CCN(C(=O)c2ccccc2N(C)S(C)(=O)=O)CC1	7%	5%	5%	8%	0%	-5%	-5%
CCOc1ccccc1NC(=O)NC1CCN(CC(=O)Nc2ccc3c(c2)OCCO3)CC1	3%	4%	0%	-1%	18%	-5%	-1%
c1ccc(CCc2cccnc2)nc1	nt	-2%[14.2 µM]	nt	nt	-4%[9.22 µM]	nt	nt
COc1cccc(-c2nn(-c3ccccc3)cc2CO)c1	-10%	11%	7%	-1%	6%	2%	-9%
COC(=O)c1sccc1NC(=O)CNC(=O)c1ccccc1	7%	5%	2%	-6%	-37%[inhibitor]	nt	-5%
O=C1C(Cl)=C(N2CCCCC2)C(=O)C(Cl)=C1c1cnc(N2CCCCC2)s1	?	-14%	-3%	14µM*	-67%[inhibitor]	-2%	-3%
Cc1ccc(NC(=O)CSc2nccn2C)cc1S(=O)(=O)N1CCOCC1	10%	-7%	4%	-2%	1%	13%	2%
N[C@]1(C(=O)O)CCc2cc(C(=O)O)ccc21	nt	-1%	-10%	?	nt	-3%	nt
Cc1n[nH]c(C)c1S(=O)(=O)N1CCC(C(=O)O)CC1	4%	8%	6%	10%	0%	5%	-9%
CCC(C)C(NS(=O)(=O)c1ccc(C)cc1)C(=O)O (stereo not given)	6%	-9%	4%	6%	0%	3%	-4%
Cc1nn(C)cc1NC(=O)Cn1nc(C(F)(F)F)cc1C1CC1	-4%	3%	1%	5%	15%	1%	-6%
O=C1C2CC=C(Cl)CC2C(=O)N1CCc1c[nH]c2ccccc12 (stereo not given)	1%	8%	-9%	4%	9%	-10%	6%
C=CCn1c2[n+](c3ccccc3c1=O)CCCCC2	-3%	-15%	9%	?	nt	4%	2%
CCOC(=O)c1c(-c2ccc(C)o2)csc1NC(=O)CN1CCN(CC)CC1	0%	-18%	-9%	-5%	1%	4%	6%
c1ccc(N2CCN(c3cnccn3)CC2)nc1	5%	nt	-1%	-3%	nt	-2%	-1%
O=c1[nH]cc(S(=O)(=O)c2ccccc2)[nH]1	-11%	9%	7%	-3%	-10%	3%	3%
COc1ccc(S(=O)(=O)NNC(=O)c2csc(-n3nc(C)cc3C(F)(F)F)n2)cc1	-17%	3%	-3%	-3%	-8%	-4%	-5%
Cc1cc(C)c(OCC(=O)NCC2CCCO2)c(C)c1 (stereo not given)	4%	13%	-5%	-2%	-3%	-3%	-1%
CN(C)C(=O)c1cc(C(=O)c2ccccc2C(F)(F)F)c[nH]1	6%	-4%	7%	9%	-66%[inhibitor]	8%	4%
CCOc1ccccc1N(C)C(=O)c1nn(-c2ccc(OC)cc2OC)c(=O)c2ccccc12	5%	2%	-1%	-7%	-60%	-22%	3%
CN1CCN(CC(O)COCc2ccc3c(c2)OCO3)CC1 (stereo not given)	2%	5%	-7%	-6%	-3%	-12%	0%

Some of the entries so far, with each value named.
> C=CCn1c2[n+](c3ccccc3c1=O)CCCCC2
  GAA glycogen = -3%	RGS12 GoLoco inh = -15%	aGal spleen mod = 9%	KDM4E inh = ?	SMN2 splice enh = nt	aGlu spleen mod = 4%	GAA inh = 2%

> CCOC(=O)c1c(-c2ccc(C)o2)csc1NC(=O)CN1CCN(CC)CC1
  GAA glycogen = 0%	RGS12 GoLoco inh = -18%	aGal spleen mod = -9%	KDM4E inh = -5%	SMN2 splice enh = 1%	aGlu spleen mod = 4%	GAA inh = 6%

Further compounds follow.
SMILES	GAA glycogen	RGS12 GoLoco inh	aGal spleen mod	KDM4E inh	SMN2 splice enh	aGlu spleen mod	GAA inh
CN(Cc1nc2ccccc2n1C)C(=O)c1cccs1	2%	-5%	-3%	6%	-4%	-7%	4%
CCc1ccc(NC(=O)C(=O)c2cn(CC(=O)N3CCCCC3)c3ccccc23)cc1	8%	6%	-17%	1%	3%	-8%	-4%
O=C(CCl)N1N=C(c2ccco2)CC1c1cccs1 (stereo not given)	-4%	7%	0%	-3%	-79%[inhibitor]	-1%	-4%
O=c1c(=NNc2ccccc2Cl)c(=O)c2ccccc12	3%	-3%	-2%	7%	-15%	-1%	-4%
O=S(=O)(c1ccccc1)n1ccc2cccnc21	16%	11%	2%	-1%	7%	-5%	1%
CCCCSc1nnc(-c2cc(Br)ccc2N)c(=O)[nH]1	-16%	-6%	0%	9%	5%	-5%	1%
CCN(CCCNC(=O)C1CCN(S(=O)(=O)CC)CC1)c1ccccc1	1%	-2%	-9%	1%	nt	-12%	-13%
CS(=O)(=O)Nc1cccc(-c2nc(N3CCOCC3)c3ccccc3n2)c1	nt	-4%	4%	-2%	-10%	-5%	nt
CC(=O)Nc1cnc(NC(=O)c2cccc(F)c2)cc1C	9%	8%	4%	-2%	11µM*	-5%	14%
CCOc1ccc(C(=O)OCC(=O)Nc2nc(OC)cc(OC)n2)cc1OCC	8%	-18%	-1%	3%	28%	-5%	-17%

By substructure, the compounds so far with four or more nitrogen atoms (eight)
SMILES	GAA glycogen	RGS12 GoLoco inh	aGal spleen mod	KDM4E inh	SMN2 splice enh	aGlu spleen mod	GAA inh
O=C(NCC(F)(F)F)Nc1nnc(C(F)(F)F)s1	-3%	9%	-15%	-7%	-12%	-4%	1%
CCOc1ccccc1NC(=O)NC1CCN(CC(=O)Nc2ccc3c(c2)OCCO3)CC1	3%	4%	0%	-1%	18%	-5%	-1%
Cc1ccc(NC(=O)CSc2nccn2C)cc1S(=O)(=O)N1CCOCC1	10%	-7%	4%	-2%	1%	13%	2%
Cc1nn(C)cc1NC(=O)Cn1nc(C(F)(F)F)cc1C1CC1	-4%	3%	1%	5%	15%	1%	-6%
c1ccc(N2CCN(c3cnccn3)CC2)nc1	5%	nt	-1%	-3%	nt	-2%	-1%
COc1ccc(S(=O)(=O)NNC(=O)c2csc(-n3nc(C)cc3C(F)(F)F)n2)cc1	-17%	3%	-3%	-3%	-8%	-4%	-5%
CCCCSc1nnc(-c2cc(Br)ccc2N)c(=O)[nH]1	-16%	-6%	0%	9%	5%	-5%	1%
CS(=O)(=O)Nc1cccc(-c2nc(N3CCOCC3)c3ccccc3n2)c1	nt	-4%	4%	-2%	-10%	-5%	nt
